StopGo reporter: lowers the luciferase signal of an FMDV 2A StopGo reporter; human cells with a luciferase reporter of 2A StopGo recoding; control for the full effect not named in the record; Potency, µM (highest dose often 57.9 µM), inactives show at the highest dose signal change, negative = less light; 410,000 tested, 1.2% active; active = well fitted falling curve with a large enough effect; inconclusive = small, poorly fitted or top-dose-only effect; inactive = no such curve, though single readings can be large or run the other way; tested in HEK293T cells; also: % is scaled to controls: 0 for no effect and ±100 for the full control effect; nearly all actives have a fitted effect of over 45% in size; luciferase light after 4 h
Cruzain noTriton: inhibitors of Trypanosoma cruzi cruzain without detergent; AID 1476; purified cruzain, Z-FR-AMC fluorescence, no detergent; Potency, µM, inactives show max response, negative = inhibition, most hits filed as inhibitors; P25779; 200,000 tested, 2.3% active;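 also: plate controls were enzyme without inhibitor for no effect and buffer without enzyme for full effect; nearly all actives have a fitted effect of over 40% in size; top concentration of the series not given in the record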
Target sequence (P25779 123-467 limits assumed): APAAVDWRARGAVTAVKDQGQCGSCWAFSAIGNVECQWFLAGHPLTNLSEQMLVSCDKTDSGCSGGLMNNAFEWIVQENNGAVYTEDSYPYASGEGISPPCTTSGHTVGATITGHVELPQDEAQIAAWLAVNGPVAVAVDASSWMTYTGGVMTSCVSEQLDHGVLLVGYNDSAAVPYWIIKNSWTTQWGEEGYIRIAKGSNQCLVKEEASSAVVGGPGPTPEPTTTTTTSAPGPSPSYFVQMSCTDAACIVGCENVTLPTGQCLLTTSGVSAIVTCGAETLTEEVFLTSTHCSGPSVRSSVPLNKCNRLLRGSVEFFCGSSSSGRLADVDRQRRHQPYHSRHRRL
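Detergent-free condition (0.00005% Triton X-100) in acetate buffer pH 5.5 with DTT. 1.5 nM enzyme and compound were pre-mixed 15 min, then 2 uM Z-FR-AMC substrate added; reaction progress from fluorescence change between first and third reads (60 s).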
RE007 growth inh: less growth of the S. pombe RE007 Vpr strain; S. pombe RE007 Vpr strain, BacTiter-Glo ATP luminescence, 24 h; control for the full effect not named in the record; Potency, µM (titrated, usually from 92.2 µM), without a hit: at the highest dose activity change, negative = less growth; 360,000 tested, 0.21% active; AID 651644; active = well fitted falling curve with a large enough effect; inconclusive = small, poorly fitted or top-dose-only effect; inactive = no such curve, though single readings can be large or run the other way;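 also: % is scaled to controls: 0 for no effect and ±100 for the full control effect; nearly all actives have a fitted effect of over 50% in size; the assay follows cell death caused by Vpr and the record does not say whether a fall means rescue or toxicity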
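Fission yeast RE007 carrying one integrated HIV-1 vpr copy, seeded at OD 0.01 in PMG+AL medium with 23 nL pinned compound. Grown 24 h at 30 degrees; viability read by BacTiter-Glo luminescence after 5 min.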
LASV entry inh: inhibitors of Lassa virus binding or cell entry | Potency, µM (series often up to 37.9 µM), for the others: at the top dose activity change, negative = inhibition, usual class: inhibitors | Lassa virus pseudotype entry inhibition, cell reporter; control for the full effect not named in the record | 300,000 tested, 1.2% active; active means well fitted inhibition curve with a large enough effect; inconclusive means small, poorly fitted or top-dose-only effect, or effect the other way; inactive means flat fitted curve, though single readings scatter; tested in HEK293 cells; also: % is scaled to controls: 0 for no effect and ±100 for the full control effect; nearly all actives have a fitted effect of over 50% in size; luciferase read-out
SARS PLP yeast: inhibitors of SARS-CoV papain-like protease in yeast | S. cerevisiae expressing SARS-CoV PLpro, growth rescue; control for the full effect not named in the record | Potency, µM (series often up to 32.9 µM), without a hit: at the top dose activity, positive = growth rescue | 330,000 tested, 0.19% active | AID 485353; active means well fitted rising curve with a large enough effect; inconclusive means small, poorly fitted or top-dose-only effect; inactive means no such curve, though single readings can be large or run the other way; also: 0% is about no effect; nearly all actives have a fitted effect of over 55% in size; growth read by luminescence after 48 h
NS1 function inh: influenza NS1 inhibition; S. cerevisiae slowed by influenza A NS1, growth recovery by OD600; Potency, µM (highest dose often 46.1 µM), without a hit: top-dose activity, positive = more growth; 270,000 tested, 0.4% active; active means well fitted rising curve with a large enough effect; inconclusive means small, poorly fitted or top-dose-only effect; inactive means no such curve, though single readings can be large or run the other way; also: nearly all actives have a fitted effect of over 50% in size
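Growth recovery, yeast-based: influenza A NS1 expressed in S. cerevisiae causes slow growth, and suppressors are detected by OD600. The parent strain without NS1 is used as positive control.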
Marburg entry inh: blocks Marburg virus binding to or entry into cells; Marburg virus pseudotyped entry inhibition, cell reporter; control for the full effect not named in the record; about a third of the inactives were read at about 46 µM; AID 540276; Potency, µM (series often up to 37.8 µM), for the others: at the top dose activity change, negative = inhibition, actives largely listed as inhibitors; 300,000 tested, 1.8% active; active = well fitted inhibition curve with a large enough effect; inconclusive = small, poorly fitted or top-dose-only effect, or effect the other way; inactive = flat fitted curve, though single readings scatter; tested in HEK293 cells; about a fifth of its hits are not listed in these tables; also: % is scaled to controls: 0 for no effect and ±100 for the full control effect; luciferase read-out
Cruzain Triton: cruzain (T. cruzi) inhibition with detergent. purified cruzain, Z-FR-AMC fluorescence, 0.01% Triton. P25779. Potency, µM, inactives show max response, negative = inhibition, most hits filed as inhibitors. 200,000 tested, 0.43% active;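 also: plate controls were neutral wells for no effect and buffer without enzyme for full effect; nearly all actives have a fitted effect of over 40% in size; top concentration of the series not given in the record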
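Detergent-containing arm of a paired screen for aggregation-based inhibition: 0.01% Triton X-100 present. Cruzain at 1.5 nM cleaved 2 uM Z-FR-AMC at pH 5.5 with 5 mM DTT; AMC fluorescence gain over 60 s measured activity.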
The depositor's hits bear a star; ? = inconclusive; / = not tested or not shown; & = joins results of further samples; [ ] = remark or other dose. Unless noted, calls follow the shape of the dose curve; as a rule, active = well fitted curve in the direction sought with a large enough effect; inconclusive = small, poorly fitted or top-dose-only effect, or another doubt; inactive = no such curve, though single readings can be large; an effect the other way counts as inactive or inconclusive. Potency is read from the fitted curve at half-maximal effect.

SMILES	StopGo reporter	Cruzain noTriton	RE007 growth inh	LASV entry inh	SARS PLP yeast	NS1 function inh	Marburg entry inh	Cruzain Triton
CCOc1ccccc1CNC(=O)c1ccc2c(c1)N(Cc1ccc(C)cc1)CCS2	3.6%	?	/	/	/	/	?	-6.3%
Cc1cccc(NC(=O)C2C(C(=O)O)C3C=CC2C32CC2)c1C (stereo not drawn)	-28.6%	-7.2%	1.5%	-23.2%	7.6%	-15.3%	-14.0%	0.9%
COc1ccc(CNC(=O)c2sc(=S)n(-c3ccccc3)c2N)cc1	-20.3%	/	1.2%	1.9%	0.9%	0.8%	7.2%[46.1 µM]	/
C[C@@H]1C=C[C@](Cc2ccccc2)(C(=O)NCCc2c[nH]c3ccccc23)N1C(=O)c1ccccc1	5.9%	-1.9%&-13.9%	21.4%	8.2µM*	-15.6%	19.2%	?	-9.0%&-8.7%
CNC(=S)N/N=C/c1ccc(-c2ccc(C(=O)O)cc2)o1	-22.5%	/	?	/	-6.0%	-1.7%	/	/
CC12CCC(C(=O)O)(c3nc4cc([N+](=O)[O-])ccc4nc31)C2(C)C (stereo not drawn)	-7.6%	/	4.5%	-0.4%	1.1%	0.3%	9.2%[46.1 µM]	/
CC1CCCCN1S(=O)(=O)c1ccc2c(c1)C(C)(C)C(=O)N2C (stereo not drawn)	-9.5%	/	1.7%	/	3.6%	-4.2%	/	/
CCc1ccc(OCC(=O)NNC(=O)c2cnccn2)c(Br)c1	31.4%[activator]	/	-26.4%	/	?	-48.0%	/	/
CCN(CC)c1ccc(/C=N/Nc2nc(C)cc(=O)[nH]2)cc1	?	-3.6%	-13.2%	-18.2%	0.0%	-7.5%	-19.9%	-6.2%
COc1ccc(C(=O)Nc2cc(OC)c(Cl)cc2Cl)cc1	9.1%	/	2.2%	14.5%	-1.1%	/	13.9%[46.1 µM]	/
COc1cc2cc(CNc3ccccc3)c(=O)n(CC(=O)Nc3cc(C)cc(C)c3)c2cc1OC	31.1%[activator]	16.0%	/	-3.1%[46.1 µM]	/	/	/	-3.7%
NC(=O)/C(=C\c1ccncc1)c1cccc2ccccc12	6.0%	2.4%	7.8%	/	-0.7%	0.0%&7.0%	/	-0.7%
O=C(CC1C(=O)NCCN1Cc1c(F)cccc1Cl)NCCC1=CCCCC1 (stereo not drawn)	-22.4%	/	1.1%	/	22.2%	-3.4%	/	/
N#Cc1cccc(S(=O)(=O)NNC(=O)C23CC4CC(CC(C4)C2)C3)c1	-0.5%	/	-9.2%	9.1%	-8.5%	/	-2.4%	/
CCCC1=NN(C(=O)Cc2ccc(OC)c(OC)c2)C(O)(C(F)(F)F)C1 (stereo not drawn)	-12.2%	/	-13.9%	/	-0.5%	0.4%	/	/
N/C(=N\OC(=O)c1ccccc1Cl)c1ccccn1	-89.4%	-5.6%	?	2.06µM*	-17.7%	-43.5%	?	7.4%
COc1ccc(C2=CC(c3ccc(C)cc3)n3nnnc3N2)cc1 (stereo not drawn)	-20.4%	?	-28.7%	-14.7%	-25.9%	-14.5%	22.2%	-11.6%
Cc1cccc(OCC(=O)Nc2cccc(-c3nc4ccccc4s3)c2)c1	17.9%	-11.5%	/	2.1%[46.1 µM]	/	/	/	-3.4%
Cc1cccn2c(=O)c3cc(C(=O)NC(C)C)n(C)c3nc12	4.0%	?	/	-3.2%[46.1 µM]	/	/	/	-1.6%
c1ccc2nc3c(nc2c1)sc1nc2ccccc2n13	/	-0.7%	/	/	-2.2%	-1.0%	/	7.1%
COC(=O)Nc1nc2ccc(SC(C)C)cc2[nH]1	44.9%[activator]	-13.7%	-9.7%[18.4 µM]	/	/	/	/	-8.3%
O=C1CC(C(=O)Nc2ccc(F)cc2)n2cnnc2N1 (stereo not drawn)	-7.5%	/	1.3%	-9.5%	-0.2%	/	4.0%[46.1 µM]	/
CCOC(=O)c1cn(CC(=O)Nc2ccc(C(C)C)cc2)nn1	3.3%	3.1%	14.4%	-2.5%	4.4%	19.8%	0.8%	-1.5%
O=S(=O)(Nc1ccc(Cl)cc1)c1cccc(S(=O)(=O)c2ccc(Cl)c(Cl)c2)c1	-14.3%	?	/	-3.2%[46.1 µM]	/	/	14.0%[46.1 µM]	-3.7%
Cc1ccc(-c2cc(C(=O)NCCCn3ccnc3)c3ccccc3n2)s1	46.7%[activator]	-13.8%	/	-0.9%	-5.8%	16.9%	6.6%	-5.9%
O=C(c1ccccc1)C1CCc2occc2C1=O (stereo not drawn)	11.4%	-10.2%	-19.7%	-3.4%	1.8%	-0.8%	28.7%	-8.1%
Cc1cc(C)c(C)c(S(=O)(=O)N(C)CCc2ccccn2)c1C	16.7%	/	2.2%	-14.4%	0.2%	/	15.3%	/
S=C(c1ccc(N2CCCC2)cc1)N1CCCCC1	44.8%[activator]	?	-13.1%	?	-11.7%	-49.9%	-2.6%	-3.3%
CC(=O)Nc1ccc2nc(NC(=O)CS(=O)(=O)c3ccc(C)cc3)sc2c1	4.8%	-21.1%	/	1.5%[46.1 µM]	/	/	/	-4.1%
COc1cccc(N2CC(NC(=O)c3ccc4c(c3)OCO4)CC2=O)c1 (stereo not drawn)	-17.0%	-0.5%	/	-14.4%[46.1 µM]	/	/	/	0.1%
CCCC(C)NC(=O)CN(c1ccc2c(c1)OCCO2)S(=O)(=O)c1ccccc1 (stereo not drawn)	-3.8%	/	-7.2%	/	4.2%	2.6%	/	/
COc1ccc(/C=C/c2c([N+](=O)[O-])c(=O)n(C)c(=O)n2C)c(OC)c1	?	/	5.1%	/	-2.8%	/	-5.1%[46.1 µM]	/
COc1ccc(-c2c(=O)n(OC)c3ccccc3[n+]2[O-])cc1OC	-16.6%	/	5.6%	/	-0.3%	-0.2%	/	/
CC(C)C(=O)Nc1ncc(Cc2ccccc2Cl)s1	-0.4%	/	2.1%	?	-0.4%	2.1%	-5.7%	/
COc1ccc2c(c1)c1c(c(=O)n(-c3ccccc3C)c(=O)n1CC(=O)NCc1ccc(C)cc1)n2C	-29.5%	?	/	20.5%[46.1 µM]	/	/	/	-4.5%
CC(NC(=O)CCOc1ccccc1)c1ccccc1 (stereo not drawn)	12.2%	-2.3%	7.8%	6.8%	-2.8%	1.7%	8.6%	3.8%
Cc1ccc(C(O)c2cccnc2)o1 (stereo not drawn)	3.2%	-8.4%	-10.9%	-6.7%	-1.6%	11.4%	-11.6%	1.5%
O=C(NCC1CCCO1)C1CCCN1C(=O)Nc1ccccc1[N+](=O)[O-] (stereo not drawn)	-7.3%	/	-9.5%	7.7%[46.1 µM]	-0.9%	9.4%	-0.8%[46.1 µM]	/
COc1ccc(C(=O)CN(C(=O)c2ccc(Cl)cc2)N2C(=O)C3CCCCC3C2=O)cc1 (stereo not drawn)	-8.0%	-0.9%	-1.6%	1.0%	-6.3%	6.7%	3.5%	-2.1%
Cc1cc(=O)[nH]c(-c2ccc(C(F)(F)F)cc2)n1	9.2%	/	11.8%	/	-1.0%	1.2%	/	/
Cc1cccc(OCC(=O)NCCNC(=O)c2cnccn2)c1	-2.3%	/	8.5%	4.6%[46.1 µM]	0.1%	1.4%	11.2%[46.1 µM]	/
CC(C)(O)C#Cc1ccc(C(=O)N2CCN(c3ccccc3)CC2)cc1	-0.4%	13.3%	-1.2%	-25.5%	5.3%	-18.8%	-35.3%	-3.6%
COc1cc(CCC(=O)Nc2ccc(C)c(S(=O)(=O)N3CCCCCC3)c2)cc(OC)c1OC	17.8µM*	/	25.3%	?	3.8%	/	?	/
COc1ccccc1NC(=O)CSc1nnc(-c2ccco2)n1Cc1ccco1	-4.7%	-4.5%	4.8%	-0.8%	3.4%	-3.7%	-15.2%	-4.1%
COc1ccc(Cl)cc1-n1c(C)ccc1C	-8.6%	-6.5%	-1.5%	16.4%	0.2%	9.6%	?	-0.4%
O=S(=O)(NC1CCCCC1Oc1ccccc1)c1ccccc1 (stereo not drawn)	22.1%	-3.7%	28.1%	-0.8%	-13.3%	-20.5%	?	-6.2%
CCn1c(NC(=O)c2ccco2)c(-c2ccccc2Cl)c(=O)c2ccccc21	10.7%	-5.8%	7.6%	3.3%	1.8%	-5.4%	-11.1%	0.6%
O=C(O)Cn1cc(C(=O)c2ccccc2F)c2ccccc21	5.4%	/	-4.0%	29.0%	-4.3%	4.6%	12.8%	/
CCOc1cc2ccccc2cc1C(=O)Nc1ccccn1	1.7%	/	1.5%	12.0%[46.1 µM]	/	/	?	/
CCOC(=O)C1=C(c2ccccc2)Nc2ncnn2C1c1cc(OC)ccc1OC (stereo not drawn)	-22.3%	-4.0%	-5.9%	-1.9%	1.8%	-9.5%	1.3%	-7.5%
CCn1c(SCc2ccc(C)cc2)nnc1-c1nn(-c2ccccc2)ccc1=O	?	1.4%	13.3%	?	-23.2%	0.1%	-28.9%	3.2%
Cc1ccc(C(=O)N2CCc3cc(CNC(=O)CSc4ccccc4)ccc32)cc1	5.5%	-12.9%	/	?	/	/	/	-3.3%
COc1ccc(C(C(=O)NC(C)(C)C)N(C(=O)CNC(=O)c2cccs2)c2ccc(C(C)C)cc2)cc1OC (stereo not drawn)	/	?	0.6%	-16.3%	3.6%	?	?	0.0%
COc1ccc(NC(=O)Cn2nnc(C(=O)NCc3ccc4c(c3)OCO4)c2N)cc1	-18.5%&-2.2%	-3.1%	8.5%	-13.6%	2.0%	/	-2.7%&-7.6%[46.1 µM]	-0.2%
CC(=O)N(C(C)=O)c1nc(-c2ccccc2)cn1/N=C/c1ccccc1	-18.3%	/	27.8%	?	-0.6%	-45.5%	?	/
Cc1sc(N(C(=O)CCc2ccccc2)c2ccc(C(=O)O)cc2)nc1-c1ccccc1	-27.7%	/	-5.5%	/	-0.6%	1.7%	/	/
CCCCN(C)C(=O)c1ccc2c(c1)NC(=O)C(CC(C)C)N2 (stereo not drawn)	-5.5%	-1.4%	/	3.2%[46.1 µM]	/	/	/	-0.7%

Outcome played no part in choosing rows. About 4.5% of those tested had a hit in this group.
